# ABHD5 PLIN5 PPI – blocks binding of human ABHD5 to perilipin-5 | Q00G26+Q8WTS1 | Split G. princeps luciferase complementation, luminescence, 4 h | inhibition, % at 4 µM | actives 0.78% (n = 360,000);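 active means inhibition above the mean inhibition across every tested compound plus 3 SD, cut at about 22% in these data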;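 further: 0% = DMSO only wells and the 100% control is not disclosed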
# N-glyco inh – blocks N-linked glycosylation in D54 reporter cells; D54 ERlucT glycosylation luciferase reporter, 24 h; percent of 100 nM tunicamycin response; reporter increase, % at 12.5 µM; actives 0.23% (n = 360,000);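 active means mean luciferase reporter signal, scaled so untreated is 0 and the glycosylation-blocking control 100, at or above a set limit in every replicate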;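 further: luciferase carries N-glycosylation sites so blocking glycosylation raises the light; 0% = median of neutral control wells and 100% = median of 100 nM tunicamycin wells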
# TLR9-MyD88 block – blocks human TLR9 binding to MyD88; inhibition, % at 4.98 µM; CHO BLA complementation TLR9-MyD88, CCF4 FRET ratio; actives 0.21% (n = 340,000); Q9NR96+Q99836;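 active means inhibition above the mean over all tested compounds plus 3 SD, cut at about 21% in these data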;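 further: 0% = DMSO only wells and 100% = clavulanate BLA inhibitor control wells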
# ABCB6 inh 2 – human ABCB6 transporter inhibition; K562-ABCB6 porphyrin accumulation, flow cytometry, 1 h; hits give low values; fluorescence ratio to DMSO, % at 10 µM; AID 602162; actives 0.19% (n = 360,000);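 active means fluorescence ratio to DMSO below 75%, the collection mean minus 3 SD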;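 further: signal is porphyrin accumulated inside mitochondria; 100% equals median channel fluorescence of DMSO control wells; lower ratio means ABCB6 inhibition with less porphyrin fluorescence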
# SRC2 inh – human SRC2 (NCOA2) inhibition; Q15596; HEK293 GAL4-SRC2 luciferase reporter, luminescence; inhibition, % at 9 µM; actives 0.17% (n = 370,000); AID 651957;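 active means inhibition above the mean inhibition of all tested compounds plus 3 SD, set per campaign, cut at about 52% in these data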;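 further: 0% = DMSO treated cells and 100% = cells given Gossypol at 36 µM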
# Target sequence (Q15596 whole entry, looked up, the tested form may be a part): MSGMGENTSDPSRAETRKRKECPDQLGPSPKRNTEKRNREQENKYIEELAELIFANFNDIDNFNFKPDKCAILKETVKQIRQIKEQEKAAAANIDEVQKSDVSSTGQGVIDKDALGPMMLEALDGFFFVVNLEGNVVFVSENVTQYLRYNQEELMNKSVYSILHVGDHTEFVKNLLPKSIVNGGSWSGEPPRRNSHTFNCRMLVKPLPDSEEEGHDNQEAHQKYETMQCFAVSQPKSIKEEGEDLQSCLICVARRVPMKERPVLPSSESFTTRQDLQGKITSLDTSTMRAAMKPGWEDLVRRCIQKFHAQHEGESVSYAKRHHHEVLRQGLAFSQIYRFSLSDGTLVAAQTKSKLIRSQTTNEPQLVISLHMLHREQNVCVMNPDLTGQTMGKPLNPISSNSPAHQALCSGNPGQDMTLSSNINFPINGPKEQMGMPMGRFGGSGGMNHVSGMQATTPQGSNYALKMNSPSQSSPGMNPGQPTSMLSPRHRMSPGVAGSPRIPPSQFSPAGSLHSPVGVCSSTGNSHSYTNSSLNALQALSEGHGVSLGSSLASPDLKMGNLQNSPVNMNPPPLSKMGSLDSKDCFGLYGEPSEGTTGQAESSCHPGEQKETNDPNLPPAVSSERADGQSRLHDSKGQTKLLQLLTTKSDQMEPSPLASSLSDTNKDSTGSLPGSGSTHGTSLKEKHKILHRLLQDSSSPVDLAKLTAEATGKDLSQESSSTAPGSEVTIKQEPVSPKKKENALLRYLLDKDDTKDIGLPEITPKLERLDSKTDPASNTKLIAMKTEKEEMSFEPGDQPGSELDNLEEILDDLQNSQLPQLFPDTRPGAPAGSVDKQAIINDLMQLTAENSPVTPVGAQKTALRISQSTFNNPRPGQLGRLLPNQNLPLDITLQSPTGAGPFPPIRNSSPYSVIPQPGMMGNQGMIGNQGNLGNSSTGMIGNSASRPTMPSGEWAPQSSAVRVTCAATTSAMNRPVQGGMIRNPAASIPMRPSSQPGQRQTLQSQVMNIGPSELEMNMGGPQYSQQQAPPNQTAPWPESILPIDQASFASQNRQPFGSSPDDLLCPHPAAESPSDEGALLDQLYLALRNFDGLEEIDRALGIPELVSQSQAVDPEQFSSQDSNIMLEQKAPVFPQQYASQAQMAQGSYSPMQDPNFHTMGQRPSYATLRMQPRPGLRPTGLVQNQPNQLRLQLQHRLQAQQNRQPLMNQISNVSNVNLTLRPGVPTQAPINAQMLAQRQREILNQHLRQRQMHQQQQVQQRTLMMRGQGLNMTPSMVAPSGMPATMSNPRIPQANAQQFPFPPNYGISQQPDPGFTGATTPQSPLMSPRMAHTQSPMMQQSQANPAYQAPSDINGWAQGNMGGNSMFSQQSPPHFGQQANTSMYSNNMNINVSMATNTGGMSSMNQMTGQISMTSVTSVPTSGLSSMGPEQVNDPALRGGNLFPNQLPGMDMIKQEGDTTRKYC
# NOD2 RIPK2 PPI – NOD2-RIPK2 protein interaction inhibition; inhibition, % at 4.98 µM; CHO BLA complementation NOD2-RIPK2, CCF4 ratio; AID 624267; actives 0.38% (n = 360,000); in the data active means inhibition above about 21%;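 further: 0% = vehicle only and 100% = reference blocker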
# H9c2 protect – myocardial damage modulation in H9c2 cells; H9c2 cardiomyocytes, H2O2 injury protection, ATPLite, 2 h; protection from H2O2 cell death, % at 20 µM; actives 0.63% (n = 360,000);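 active means compounds giving at least 50% protection of heart cells from peroxide-induced death in the single-dose screen, raw or plate-pattern-corrected value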;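 further: 0% = DMSO wells with peroxide and 100% = DMSO wells without peroxide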
# Active calls of the source: *; . = not tested or not shown; & = joins results of further samples.
item | SMILES | ABHD5 PLIN5 PPI | N-glyco inh | TLR9-MyD88 block | ABCB6 inh 2 | SRC2 inh | NOD2 RIPK2 PPI | H9c2 protect
1 | CC12C=CC(=O)C=C1CCC1C2C(=O)CC2(C)C1CCC2(O)C(=O)CO (stereo unspecified) | 4.3 | 4.5 | 5.3 | 100.0 | -19.2 | -10.0 | -2.1
2 | O=C(Nc1ccccn1)c1ccc(-c2ccccc2)cc1 | -5.1 | -20.6 | 7.9 | 100.0 | 9.4 | 10.6 | -22.7
3 | C[C@H]1O[C@@H](O[C@H]2[C@@H](O)C[C@H](O[C@H]3[C@@H](O)C[C@H](O[C@H]4CC[C@@]5(C)[C@H](CC[C@@H]6[C@@H]5C[C@@H](O)[C@]5(C)[C@@H](C7=CC(=O)OC7)CC[C@]65O)C4)O[C@@H]3C)O[C@@H]2C)C[C@H](O)[C@@H]1O | -1.5 | -20.2 | -6.0 | 99.0 | 61.0* | 0.4 | -4.3
4 | c1cc[n+](CCCC[n+]2ccccc2)cc1 | 3.7 | 0.3 | -12.1 | 99.0 | -0.8 | -0.5 | 1.1
5 | CN1CCc2cccc3c2C1Cc1ccc(O)c(O)c1-3 (stereo unspecified) | -5.0 | -0.1 | -6.4 | 125.0 | -5.7 | 6.4 | 21.4
6 | CN1C[C@H](C(=O)N[C@]2(C)O[C@@]3(O)[C@@H]4CCCN4C(=O)[C@H](Cc4ccccc4)N3C2=O)CC2c3cccc4[nH]cc(c34)C[C@H]21 (stereo partly specified) | 3.9&2.7 | -0.3&-0.6 | -6.5&-4.1 | 107.0&91.0 | -3.8&-8.8 | -22.2&-4.3 | 1.8&7.3
7 | Nc1ccn([C@@H]2O[C@H](CO)[C@@H](O)[C@@H]2O)c(=O)n1 | 2.4 | -2.2 | -9.3 | 100.0 | 21.5 | -5.5 | 0.3
8 | C[C@]12CC[C@@H]3c4ccc(O)cc4CC[C@H]3[C@@H]1CC[C@@H]2O | 5.8 | 0.6 | 3.0 | 95.0 | 10.1 | -19.9 | 2.9
9 | NC12CC3CC(CC(C3)C1)C2 | 4.8 | -1.0 | 2.6 | 102.0 | 5.5 | -9.2 | 1.9
10 | O=C(CCCN1CCC(O)(c2ccc(Br)cc2)CC1)c1ccc(F)cc1 | -0.1 | 2.5 | -1.1 | 87.0 | -34.9 | 4.0 | -3.5
11 | CC(C)(C)NC(=O)[C@H]1CC[C@H]2[C@@H]3CC[C@H]4NC(=O)C=C[C@]4(C)[C@H]3CC[C@]12C | -8.0 | -1.1 | -0.9 | 102.0 | -22.8 | -18.3 | -3.1
12 | COc1ccc2c(c1)c(CC(=O)O)c(C)n2C(=O)c1ccc(Cl)cc1 | 10.1 | 0.2 | 7.3 | 92.0 | -31.0 | -5.4 | 7.9
13 | NS(=O)(=O)c1cc2c(cc1C(F)(F)F)NCNS2(=O)=O | 1.0 | 1.4 | -8.0 | 97.0 | -6.0 | -12.1 | 4.9
14 | COc1ccc(-c2nc(-c3ccncc3)no2)c(OC)c1 | 1.4 | -17.5 | 3.3 | 101.0 | -17.6 | 5.7 | -10.7
15 | COC(=O)[C@H]1[C@H]2C[C@H]3c4[nH]c5ccccc5c4CCN3C[C@@H]2CC[C@@H]1O | -7.8&2.8 | 2.0&-0.7 | 1.0&-7.0 | 111.0&98.0 | 7.0&-8.4 | -2.6&-1.4 | 1.0&-2.1

# Part of the list above, with values under each structure.
# Each structure is followed by: ABHD5 PLIN5 PPI, N-glyco inh, TLR9-MyD88 block, ABCB6 inh 2, SRC2 inh, NOD2 RIPK2 PPI, H9c2 protect
8. C[C@]12CC[C@@H]3c4ccc(O)cc4CC[C@H]3[C@@H]1CC[C@@H]2O
    5.8, 0.6, 3.0, 95.0, 10.1, -19.9, 2.9
9. NC12CC3CC(CC(C3)C1)C2
    4.8, -1.0, 2.6, 102.0, 5.5, -9.2, 1.9

# Part of the list above in order of number of heavy atoms, low to high:
item | SMILES | ABHD5 PLIN5 PPI | N-glyco inh | TLR9-MyD88 block | ABCB6 inh 2 | SRC2 inh | NOD2 RIPK2 PPI | H9c2 protect
9 | NC12CC3CC(CC(C3)C1)C2 | 4.8 | -1.0 | 2.6 | 102.0 | 5.5 | -9.2 | 1.9
14 | COc1ccc(-c2nc(-c3ccncc3)no2)c(OC)c1 | 1.4 | -17.5 | 3.3 | 101.0 | -17.6 | 5.7 | -10.7
6 | CN1C[C@H](C(=O)N[C@]2(C)O[C@@]3(O)[C@@H]4CCCN4C(=O)[C@H](Cc4ccccc4)N3C2=O)CC2c3cccc4[nH]cc(c34)C[C@H]21 (stereo partly specified) | 3.9&2.7 | -0.3&-0.6 | -6.5&-4.1 | 107.0&91.0 | -3.8&-8.8 | -22.2&-4.3 | 1.8&7.3

# (continued)
item | SMILES | ABHD5 PLIN5 PPI | N-glyco inh | TLR9-MyD88 block | ABCB6 inh 2 | SRC2 inh | NOD2 RIPK2 PPI | H9c2 protect
16 | NCCc1ccn[nH]1 | 1.6 | 0.2 | 2.8 | 95.0 | -1.7 | -6.2 | -10.4
17 | CCC1NC(=O)c2cc(S(N)(=O)=O)c(Cl)cc2N1 (stereo unspecified) | -2.7 | 0.0 | 5.6 | 96.0 | 8.6 | -8.2 | -12.7
18 | C#C[C@]1(O)CC[C@H]2[C@@H]3CCC4=CC(=O)CC[C@@H]4[C@H]3CC[C@@]21C | -12.6 | -0.2 | 2.2 | 110.0 | -12.9 | -8.3 | 14.5
19 | CC[N+](CC)(CC)CCOc1cccc(OCC[N+](CC)(CC)CC)c1OCC[N+](CC)(CC)CC | -1.3 | 0.9 | -10.7 | 95.0 | . | -13.6 | -6.4
20 | N[C@@H](Cc1ccc(O)c(O)c1)C(=O)O | -3.0 | 0.3 | 5.5 | 100.0 | -12.5 | -5.6 | 7.0
21 | Cc1cc(C(=O)COC(=O)c2cccc(O)c2)c(C)n1C1CC1 | 5.4 | -18.8 | -8.9 | 90.0 | -19.7 | -4.3 | -16.1
22 | Nc1ccc(S(=O)(=O)c2ccc(N)cc2)cc1 | 4.1 | -1.0 | 3.9 | 94.0 | -8.0 | -4.1 | 20.5
23 | CN1C[C@H](C(=O)NC2(C)OC3(O)[C@@H]4CCCN4C(=O)[C@H](Cc4ccccc4)N3C2=O)CC2c3cccc4[nH]cc(c34)C[C@H]21 (stereo partly specified) | -5.5 | 0.8 | 1.8 | 105.0 | -13.1 | -3.3 | 35.4
24 | COc1ccc2c(c1OC)C(=O)OC2C1c2c(cc3c(c2OC)OCO3)CCN1C (stereo unspecified) | 9.6&-2.4&5.3 | 1.5&2.7&1.8 | -1.9&18.3&-10.6 | 104.0&107.0&111.0 | -6.4&-22.4&3.7 | -28.0&-0.4&-5.1 | 13.9&-0.4&-6.0
25 | CN(C)CC/C=C1\c2ccccc2COc2ccccc21 | -6.0 | -1.8 | 3.5 | 99.0 | 8.6 | -1.2 | 3.8
26 | CC(=O)O[C@H]1C(=O)[C@@]2(C)C([C@H](OC(=O)c3ccccc3)[C@]3(O)C[C@H](OC(=O)[C@H](O)[C@@H](NC(=O)c4ccccc4)c4ccccc4)C(C)=C1C3(C)C)[C@]1(OC(C)=O)CO[C@@H]1C[C@H]2O (stereo partly specified) | -0.1 | 4.7 | -1.4 | 97.0 | -4.8 | -22.1 | 2.6
27 | CCCN1C[C@H](CSC)C[C@@H]2c3cccc4[nH]cc(c34)C[C@H]21 | 0.1 | -1.8 | 2.4 | 93.0 | -8.6 | -9.1 | 0.5

# Only part of the results is shown; the hit share may differ from the screen's.
